# VDR inh: inhibitors of human vitamin D receptor; P11473; VDR-SRC2-3 peptide fluorescence polarization, 2 h; Potency, µM, inactives show max response, negative = inhibition, usual class: inhibitors; hit rate 0.93% among 400,000; AID 504847; active means well fitted inhibition curve with a large enough effect; inconclusive means small, poorly fitted or top-dose-only effect, or another doubt; inactive means no such curve, though single readings can be large or run the other way; further: series mostly up to about 120 µM
# Target sequence (P11473 whole entry, looked up): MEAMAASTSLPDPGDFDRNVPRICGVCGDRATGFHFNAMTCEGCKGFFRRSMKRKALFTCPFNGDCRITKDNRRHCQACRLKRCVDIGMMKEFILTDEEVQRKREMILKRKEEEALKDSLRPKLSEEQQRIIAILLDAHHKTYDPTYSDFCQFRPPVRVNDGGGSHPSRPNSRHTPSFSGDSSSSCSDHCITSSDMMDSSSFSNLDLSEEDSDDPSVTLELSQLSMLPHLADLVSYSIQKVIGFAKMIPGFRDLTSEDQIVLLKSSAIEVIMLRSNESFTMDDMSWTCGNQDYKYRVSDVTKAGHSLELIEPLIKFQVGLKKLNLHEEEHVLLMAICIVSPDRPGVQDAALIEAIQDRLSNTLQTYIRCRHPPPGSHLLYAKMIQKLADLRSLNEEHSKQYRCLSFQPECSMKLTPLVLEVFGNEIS
#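 Fluorescence polarization assay of small-molecule disruption of VDR binding to coregulator peptide SRC2-3. Compounds and controls pin-transferred, then read after 2 h incubation at ambient room temperature.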
# Active calls of the source: *; ? = inconclusive; & = joins results of further samples. On the % scale 0 is the no-effect control and ±100 the full control effect; potency means the concentration at half of the fitted maximal effect. This is a subset (hit frequency here may not be typical).
mol	VDR inh
CC(C(=O)Nc1cccc(C#N)c1)N(C)CCOc1ccccc1 (stereo not drawn)	-7.2%
Cc1ccc(-c2csc(C(C#N)=C3CCCC3)n2)cc1	-8.4%
CN(Cc1ccc(F)cc1)C(=O)c1ccc(NC(=O)CC2SC(N3CCCC3)=NC2=O)cc1 (stereo not drawn)	0.3%
Cc1ccc(OCC(=O)NC(=S)Nc2ccccn2)c(Br)c1	0.1%
COc1ccc(-c2cn3nc(N4CCCC(C(=O)Nc5ccccc5OC)C4)sc3n2)cc1 (stereo not drawn)	6.0%
O=C(NCc1ccc2c(c1)OCO2)Nc1ccc2ccccc2c1	5.2%
COc1cc(/C=C2\SC(N)=NC2=O)cc(Br)c1O	11.4%
COc1ccc(CNC(=O)C2CC=CCC2C(=O)O)cc1OC (stereo not drawn)	-6.8%
CC(C)Cc1nc2sc3c(=O)[nH]cnc3c2c2c1CCC2	-11.3%
CSc1nc(N2CCOCC2)cc(N2CCOCC2)n1	-3.0%
COCCN(C(=O)COC(=O)CCc1ccc(OC)cc1)c1c(N)n(Cc2ccccc2)c(=O)[nH]c1=O	-3.2%
Cc1ccc(CN2CCc3nc(SCC(=O)Nc4cccc(C)c4C)[nH]c(=O)c3C2)cc1	3.1%
CN(C)c1nc2ccccc2n(C)c1=O	7.3%
Cc1ccc(C)c(NC(=O)c2cc(-c3cc(C)cc(C)c3O)n[nH]2)c1	-4.1%
Cc1cccc(C)c1OCC(=O)NCC1(N2CCOCC2)CCCCC1	-0.3%
COc1ccc(-c2nsc(SCC(=O)NCc3ccc4c(c3)OCO4)n2)cc1	-2.6%
Cc1noc(C)c1COC(=O)c1cc(F)c(F)cc1Cl	-3.2%
NC(=O)CC(NC(=O)Cc1cccc2ccccc12)c1ccc(NC2CCN(Cc3ccccc3)CC2)c([N+](=O)[O-])c1 (stereo not drawn)	-6.7%
O=C(c1cnn2cccnc12)N1CCN(Cc2ccc3c(c2)OCO3)CC1	9.1%
CCN(CC)CCCn1c2c(c(SCC(=O)N3CCc4ccccc43)nc1=O)CCC2	-0.9%
Cc1ccccc1COc1ccc(-c2nnn(CC(=O)O)n2)cc1	-7.9%
CC(C(=O)c1ccc(Br)cc1)[n+]1cccc(NC(=O)c2ccccc2)c1 (stereo not drawn)	3.2%
C=CCn1c(SCc2nc3sc(C(=O)O)c(C)c3c(=O)[nH]2)nnc1-c1ccc(F)cc1	1.8%
CSc1ccc(CN(C)Cc2nc3ccccc3c(=O)[nH]2)cc1	2.7%
COc1cccc(NC(=O)c2cc3c(=O)n(Cc4cccnc4)ccc3nc2C)c1	5.9%
COc1ccc(N(C(=O)c2ccccc2F)S(=O)(=O)c2ccc3c(c2)n(C)c(=O)n3C)cc1	-0.1%
COc1ccc(-n2nc(C(=O)Nc3ccc4c(c3)OCO4)c3ccccc3c2=O)c(OC)c1	-1.9%
CCN(CC)C(=O)c1ccc2c(c1)N(Cc1ccccc1F)C(=O)c1ccccc1S2=O (stereo not drawn)	-11.5%
CC(C(=O)Nc1cccc(S(=O)(=O)N2CCOCC2)c1)N1CCN(c2ccc(F)cc2)CC1 (stereo not drawn)	-13.8%
CCOc1cccc2sc(N(CCN(CC)CC)C(=O)c3cccc([N+](=O)[O-])c3)nc12	3.9%

# Gathered by group: the compounds so far with a nitro group on carbon.
mol	VDR inh
NC(=O)CC(NC(=O)Cc1cccc2ccccc12)c1ccc(NC2CCN(Cc3ccccc3)CC2)c([N+](=O)[O-])c1 (stereo not drawn)	-6.7%
CCOc1cccc2sc(N(CCN(CC)CC)C(=O)c3cccc([N+](=O)[O-])c3)nc12	3.9%

# Further results
mol	VDR inh
Cc1ccc(-c2nnn(CC(=O)N3CCCCC3)n2)c(-n2cnnn2)c1	-16.0%
C/C(=N\O)C(=O)C(CN1CCCCC1)CN1CCCCC1	-11.7%
O=C(COc1ccc(C(=S)N2CCC(Cc3ccccc3)CC2)cc1)N1CCOCC1	-6.6%
COc1ccc2c(c1)c(=O)c(C(=O)c1ccc(F)cc1)cn2CC(=O)Nc1ccc2c(c1)OCO2	-17.3%
COc1cccc(CNCC(O)COc2ccc(C(=O)c3ccccc3)cc2)c1 (stereo not drawn)	-1.9%
Cc1ccc(C)c(N2CCN(C(=O)c3cc(S(=O)(=O)N4CCOCC4)ccc3F)CC2)c1	-25.4%
COc1ccc(Cl)cc1NC(=O)CSc1nnc(Cc2ccc(C)cc2)c(=O)[nH]1	?
O=C(Oc1ccccc1N1C(=O)CCC1=O)c1ccco1	-11.2%
Cc1cc(C)c(NC(=O)NC(=O)c2ccc(F)cc2)c(C)n1	-2.8%
Cc1nc2cc(NC(=O)N3CCCCC3)ccc2n1C	9.2%
Nc1nc2n(n1)C(c1ccc(F)cc1)CC(c1ccc(F)cc1)N2 (stereo not drawn)	4.4%
COc1ccc(NC(=O)Nc2cccc3c2O[C@H](CN(C)C(=O)Nc2ccc4c(c2)OCO4)[C@@H](C)CN([C@H](C)CO)C3=O)cc1	5.3%
CCOCCn1cnc2sc(C(=O)Nc3ccccc3C(=O)OC)c(C)c2c1=O	8.0%
CCCc1cc(=O)[nH]c(SCC(=O)Nc2oc(C)c3c(C)n[nH]c(=O)c23)n1	11.3%
CN(C)C(=O)CCc1ccc2c3c([nH]c2c1)[C@]1(CCC2CCCC2)[C@@H](C(=O)N2CCOCC2)C[C@H](CC(=O)NCCN2CCOCC2)C(=O)N1CC3	-23.3%
Cc1sc2nc3n(c(=O)c2c1C)NC(=O)CC3	-5.1%
Cc1ccc(C(=O)N/N=C2\CCc3ccccc32)c(C)c1	-12.2%
COc1ccc(-c2c(C)nn(-c3ccccc3)c2NC(C)=O)cc1OC	-12.3%
O=C(O)c1ccc2c(c1)C(=O)N(c1ncccn1)C2=O	-8.1%
O=C(CCn1ccnc1)Nc1cc(Cl)ccc1O	-1.6%
O=C(COC(=O)COc1ccccc1F)Nc1cccc(S(=O)(=O)N2CCCCC2)c1	-13.5%
CC(=O)c1c(N=CN(C)C)nc(C)nc1-c1ccccc1	2.4%
Cc1ccc2nc(NC(=S)NC(=O)c3ccc(OC(C)C)cc3)sc2c1	0.4%
COc1ccc(OCCCC(=O)Nc2ccc(OC)c(S(=O)(=O)N3CCOCC3)c2)cc1	1.2%
O=C(NCc1ccccc1)c1ccc(Br)o1	-9.2%
COc1cc(COc2ccc3c(C)c(Cc4ccccc4)c(=O)oc3c2C)cc(OC)c1OC	-0.7%
Cc1ccc2cc3cc(C(=O)N4CCCCCC4)oc3nc2c1	-10.4%
COc1ccc(/C=N/NC(=S)Nc2ccccc2)cc1COc1ccc(Br)cc1	10.7%
COc1ccc(S(=O)(=O)N(CC(=O)N/N=C/c2cccs2)c2cc(C)cc(C)c2)cc1OC	0.0%
Cc1ccc(-n2c(C)nn(-c3ncc(C(F)(F)F)cc3Cl)c2=O)cc1	-3.3%

# Not a retest: an excerpt of the list.
mol	VDR inh
COc1cc(COc2ccc3c(C)c(Cc4ccccc4)c(=O)oc3c2C)cc(OC)c1OC	-0.7%
Cc1ccc2cc3cc(C(=O)N4CCCCCC4)oc3nc2c1	-10.4%
COc1ccc(/C=N/NC(=S)Nc2ccccc2)cc1COc1ccc(Br)cc1	10.7%

# The listing continues.
mol	VDR inh
CCCCNC(=O)O[C@@H]1C[C@H]2CCC(=O)N3CC[C@@H](C1)[C@@H]23	?
O=C(Nc1cccc([N+](=O)[O-])c1)C1C2/C=C\CCCCC21 (stereo not drawn)	-7.8%
CCOc1ccccc1NC(=O)Cn1c(=O)sc2ccccc21	-11.8%
CCCOc1ccc(C(=O)OCC(=O)c2c(N)n(C)c(=O)n(C)c2=O)cc1OCC	4.6%
CN1C(=O)Cc2cc(S(=O)(=O)N3CCN(c4cccc(Cl)c4)CC3)ccc21	-5.8%
CCc1nccn1S(=O)(=O)c1cc(C)c(OC)cc1C	-2.0%
CCN(CC)S(=O)(=O)c1ccc(Cc2ncc(C(F)(F)F)cc2Cl)s1	-34.3%
CCCC(=O)Nc1nnc(SCC(=O)NCc2ccco2)s1	-1.8%
COc1ccc(NC(=O)CO/N=C(\C)c2cccs2)cc1	-9.6%
CCN(CC)C(=O)Cn1c(=O)n(CCCCCC(=O)NCc2ccccc2)c(=O)c2sccc21	-0.4%
O=C(CNC(=O)c1ccccc1)NCC(=O)OCC(=O)c1ccc2ccccc2c1	-17.8%
CN(Cc1ccco1)c1ncncc1-c1cccnc1	44.7µM*
CC(C)OCCCNC(=O)CCc1nc(-c2ccccc2)no1	3.8%
CCC(/C=N/NC(=O)C(N)=O)CC	8.1%
Cc1ccc2cc(C(c3nnnn3C(C)(C)C)N3CCCCCC3)c(=O)[nH]c2c1 (stereo not drawn)	-7.3%
C#CCOc1ccc(/C=C2/C(=O)ON=C2C)cc1Br	39.8µM*
Cc1cccc(C)c1NC(=O)CN(C)C(=O)CCC(=O)c1ccccc1	-13.4%
O=c1[nH]c(N/N=C/c2ccc(O)cc2)nc2ccccc12	4.7%
C=CCNC(=O)c1ccc2c(c1)N(CC)C(=O)c1ccccc1S2	4.9%
CC(C)CCN1CCN(Cc2ccon2)CC1CCO (stereo not drawn)	2.9%

# New compounds follow.
smiles | VDR inh
COc1ccc(N(C(=O)c2ccn[nH]2)C(C(=O)NC2CCCC2)c2ccc(F)cc2)cc1 (stereo not drawn) | -10.3%
CN(C(=O)CCCN1CCCC1=O)C1CCCN(Cc2ccccc2F)C1 (stereo not drawn) | 11.6%
O=C(O)C1(Nc2ccc(Br)cc2)CCCC1 | -5.9%
CCC1S/C(=N/S(=O)(=O)c2ccc(N)cc2)NC1=O (stereo not drawn) | -6.6%
Cc1cc(C)nc(SCc2nnc(SCC(=O)Nc3nccs3)n2C)n1 | 0.0%
Cc1ccc(C(=O)N2CCC(n3nccc3NC(=O)Nc3cccc(F)c3)CC2)cn1 | 11.9%
O=C(Nc1cccc2ccccc12)NC1CCS(=O)(=O)C1 (stereo not drawn) | 19.1%
CC(C)CCN1CCN(C/C=C/c2ccco2)CC1CCO (stereo not drawn) | 2.1%
CC(C)N(Cc1ccccc1)C(=O)C1CCN(c2ncnc3c2nc2n3CCCCC2)CC1 | -9.3%
COCCn1cc(C(=O)NCCCOC(C)C)c2c3ccccc3n(C)c2c1=O | -3.7%&-6.3%
Cc1ccc(C)c(CS(=O)(=O)c2cn(CC(=O)N3CCCCC3)c3ccccc23)c1 | 4.3%
COC(=O)/C=C1\C(=O)N(c2nc3ccccc3s2)C(=S)N1c1ccc(F)cc1 | 10.5%
COc1ccc(CCCNC(=O)C2CCC(=O)N(CC3CCCCC3)C2)cc1 (stereo not drawn) | -23.8%
Cc1cc(C)cc(NC(=O)Cn2nnc(C(=O)NCc3ccc4c(c3)OCO4)c2N)c1 | 7.5%
COC(=O)c1[nH]c2ccccc2c1NC(=O)CNC1CCCCC1 | 11.5%
Cc1cc(C)cc(NC(=O)CSc2ccc(-c3cccs3)nn2)c1 | 7.7%&-10.1%
Cc1cc(C)c2nc(SCC(=O)N(C)C3CCS(=O)(=O)C3)cc(C)c2c1 (stereo not drawn) | 3.5%
Fc1ccc2c(c1)NC(c1ccncc1)=NC(c1cccs1)=N2 | 5.7%
CC(Sc1nnc(N)s1)C(=O)c1c(N)n(C)c(=O)n(C)c1=O (stereo not drawn) | 9.4%
Cc1ccc(C(C(=O)NC2CCCCC2)N2CCN(C(=O)c3ccco3)CC2)cc1 (stereo not drawn) | -0.1%
CCN(CC)CCCN1C(=O)CSC1c1ccc([N+](=O)[O-])cc1 (stereo not drawn) | -2.4%
Cc1ccccc1NC(=O)NC1(C(=O)NCC2CCCO2)CCCCC1 (stereo not drawn) | 10.5%
OCCNc1nc2ccccc2n1CC(O)c1ccccc1 (stereo not drawn) | -8.3%
Cc1ccc(C(=O)NNC(=O)c2ccncc2)cc1C | 10.3%
O=S(=O)(Nc1nc(SCc2ccc(Cl)cc2)n[nH]1)c1ccc(F)cc1 | 9.6%
COc1ccccc1NS(=O)(=O)c1ccc(-c2cnc(C3CC3)o2)cc1 | -13.3%
O=C(NCc1cccs1)c1ccc2c(c1)sc1nc(-c3ccccc3)cn12 | 4.4%
CCOC(=O)C(C)/C(C)=N/NC(N)=S (stereo not drawn) | -17.0%
CCN(CC)S(=O)(=O)c1ccc(N2CCCC2)c(NC(=O)c2ccccc2OC)c1 | -8.0%
N#C/C(=C(/O)CSc1ccccc1C(=O)O)c1nc2ccccc2s1 | -20.9%
COc1ccc(CCNC(=O)CSc2nc3ncccc3[nH]2)c(OC)c1 | -1.9%
CN(C)c1ccc(C2N(c3ccc(F)cc3)C(=O)C3CCCN32)cc1 (stereo not drawn) | -10.7%
O=C(Cn1[nH]c(=O)c2ccccc2c1=O)Nc1cccnc1 | -6.2%
CC(=O)Nc1nc(-c2ccccc2)nc(-c2ccccc2OC(C)=O)n1 | -9.7%
O=C(NCc1ccccc1CN1CCCC1)c1ccc(Cl)c(S(=O)(=O)N2CCCC2)c1 | 18.0%
Cc1cccc(N2CCN(Cc3cc(=O)oc4cc(C)ccc34)CC2C)c1 (stereo not drawn) | 14.7%
CCOc1ccccc1-c1nnc(SCC(=O)NC2CC3CCC2C3)n1CC (stereo not drawn) | 8.4%
COc1ccc(/C=C/C(=O)NC2CCN(Cc3ccccc3)CC2)cc1OC | -5.1%
O=C(CCC(=O)c1ccc(Oc2ccccc2)cc1)Nc1cccc(Cl)c1Cl | 7.3%
O=C(CNC(=O)c1ccccc1F)NCCOc1ccccc1Cl | -9.3%
O=C(COC(=O)CNC(=O)c1ccc(Cl)c([N+](=O)[O-])c1)NC(=O)c1ccccc1 | 3.2%
CCc1cccc(NC(=O)CSc2ncc3c(n2)-c2ccccc2N(Cc2ccccc2C)S3(=O)=O)c1 | -8.3%

# Some of the entries so far, as labelled records.
COc1ccc(CNC(=O)C2CC=CCC2C(=O)O)cc1OC (stereo not drawn)
  VDR inh = -6.8%
CC(C)Cc1nc2sc3c(=O)[nH]cnc3c2c2c1CCC2
  VDR inh = -11.3%

# Screening results deposited in PubChem by National Center for Advancing Translational Sciences (NCATS).
